NPYLR7 agonist: agonists of mosquito NPYLR7 receptor, primary screen, cell-based, Aedes aegypti, calcium fluorescence, mosquito biting behavior; actives 0.15% (n = 270,000); activation, % at 10 µM; AID 1259423, 2018; HEK293T NPYLR7/Galpha15, GCaMP6s calcium fluorescence; Aedes aegypti neuropeptide Y-like receptor 7 (NPYLR7); in the data active = activation above about 40%;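 note: 0% = vehicle and 100% = reference agonist at the receptor; some compounds past the cut are filed as inactive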
NPYLR7 agonist max-min: second read-out of NPYLR7 agonist, no call of its own (marks repeat the call); activation, %; measured here: Max-Min RFU normalised activation; some inactives read as strong as hits;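 span of the calcium signal over five minutes; 0% = vehicle and 100% = native peptide agonist; compound fluorescence can raise it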
An asterisk follows results filed as active; & = joins results of further samples. An excerpt; the hit share may differ from the screen's.

SMILES	NPYLR7 agonist	NPYLR7 agonist max-min
CS(=O)(=O)N1CCOC(CNC(=O)c2cccc3c2OCC3)C1 (stereo not drawn)	1.4	1.0
Cn1cc(C2(C)CN(c3ncccc3C#N)CCO2)cn1 (stereo not drawn)	7.0	2.6
CCN(CC)C(=O)CSc1nnc(N)s1	0.8	27.4
CCCCN(CC(=O)N1c2ccccc2-n2cccc2C1c1ccc(OC)cc1)C(=O)Nc1ccccc1C(F)(F)F (stereo not drawn)	-5.1	1.0
Cc1c(C)c(C)c(S(=O)(=O)Nc2ccc(S(=O)(=O)NC3CC3)cc2)c(C)c1C	2.8	1.7
CC(C)N(Cc1nccn1Cc1cccc(F)c1)C(=O)c1ccc(Cl)cc1	1.9	11.5
O=C(O)c1cnn(-c2ccccn2)c1C(F)(F)F	0.1	-1.2
Cc1ccc(-n2nnc3c(=O)n(Cc4ccc(C(F)(F)F)cc4)cnc32)cc1C	-2.1	-5.8
Cc1ccc2oc(Nc3nc(C)cc(=O)[nH]3)nc2c1	-1.7	-6.2
O=S1(=O)CCN2C=C(Cc3c(Cl)cccc3Cl)SC2=N1	0.5	-1.0
CCC(=NCc1ccc(C)cc1)c1nc(-c2ccc(Cl)cc2)oc1O	2.8	0.5
Cn1nc(-c2ccccc2)cc1NC(=O)Cn1cnc(Cl)c1Cl	15.5	10.8
CC(c1cccs1)N(C)C(=O)c1ccc2sc(N)nc2c1 (stereo not drawn)	21.3	9.9
O=C1OC(/C=C/c2ccccc2)=NC/1=C/c1ccccc1[N+](=O)[O-]	0.5	-1.5
Cn1nc(-c2cccnc2)c2c1NC(=O)CC2C1CCC(N)CC1 (stereo not drawn)	6.5	5.7
O=C(NC(c1ccc2c(c1)OCO2)c1ccccn1)C1CCN(CCCOc2ccccc2)CC1 (stereo not drawn)	-8.5	-14.7
CCC(C)(C)NS(=O)(=O)c1ccc(Cl)c(Cl)c1	9.7	5.4
O=C(Cn1nc(-c2cccs2)c2sc(N3CCCCC3)nc2c1=O)OCc1ccccc1	-0.9	-7.8
COCCN(CC(=O)N(CCc1ccccc1)Cc1ccc(C)o1)C(=O)C1CCC1	-4.0	-6.0
O=C(Cc1ccc(F)cc1)NCC1=CCCN(Cc2cnc[nH]2)C1	0.9	-1.9
Cc1cc2nc(-c3ccccc3)c(N3CCN(C(=O)COc4ccccc4)CC3)nc2cc1C	-11.1	-5.9
Cc1nnc(SCC(O)COc2ccc(C(C)(C)C)cc2)n1C1CC1 (stereo not drawn)	-4.6	-6.4
COC(=O)c1cccc(NC(=O)c2sc3cc(F)ccc3c2Cl)c1	0.3	9.6
CCOc1ccc(CN(C)C(=O)c2c(C)cc(=O)n(CC(=O)NC(C)C)c2C)cc1	-0.2	1.1

Arranged by number of heavy atoms (highest first): some entries from above
SMILES	NPYLR7 agonist	NPYLR7 agonist max-min
O=C(Cn1nc(-c2cccs2)c2sc(N3CCCCC3)nc2c1=O)OCc1ccccc1	-0.9	-7.8
COCCN(CC(=O)N(CCc1ccccc1)Cc1ccc(C)o1)C(=O)C1CCC1	-4.0	-6.0
CC(c1cccs1)N(C)C(=O)c1ccc2sc(N)nc2c1 (stereo not drawn)	21.3	9.9

Going on with the list.
SMILES	NPYLR7 agonist	NPYLR7 agonist max-min
CCC(C)C(=O)N(C)Cc1ccc(C(N)=O)cc1 (stereo not drawn)	4.3	1.9
COC(=O)c1ccc(C)c(NS(=O)(=O)c2ccsc2C(=O)OC)c1	10.6	1.3
CC(C)C(=O)N1CCC1(C)C(=O)Nc1cc(-c2ccccc2)nn1C (stereo not drawn)	8.6	3.4
CN(C)S(=O)(=O)c1ccc(C(=O)Nc2ccc(SCC(=O)N3CCCC3)nn2)cc1	-3.5	-3.0
CN(C(=O)Nc1ccccc1F)C(c1ccc(Cl)cc1)c1nccn1C (stereo not drawn)	5.1	-0.7
CCOC(=O)N1CCC(n2c(-c3ccc(OC)cc3)csc2=Nc2ccccc2SC)CC1	-7.5	-11.5
CCCNC(=O)/C(C#N)=C1\N=C(NC(=O)c2cccs2)c2ccccc21	0.7	0.5
Cc1cc(C(=O)COC(=O)CN2C(=O)NC3(CCCC3)C2=O)c(C)n1CC1CCCO1 (stereo not drawn)	0.2	6.0
COc1cc(C=NNC(=O)c2ccoc2C)cc(OC)c1O	-2.9	-6.1
Cc1ccc(F)c(N2C(=O)CSC2c2cccc(NC(=O)c3ccccc3Cl)c2)c1 (stereo not drawn)	-2.5	9.0
CC(=O)S[C@@H]1CC2=CC(=O)CC[C@]2(C)[C@H]2CC[C@@]3(C)[C@@H](CC[C@@]34CCC(=O)O4)[C@H]12	0.1&-7.0	-6.0&-10.9
O=C(O)C1CCC(c2ccc(F)cc2)N(C(=O)C2CC2)C1 (stereo not drawn)	19.4	13.2
Cc1ccn(CC(=O)N2CCC(C(=O)Nc3ccc(Oc4ccccc4F)cc3)CC2)n1	-3.8	-3.9
O=C(Cc1cccc2ccccc12)N1CC[C@@H](N2CCC(O)CC2)[C@H](O)C1	4.4	1.5
COCC(=O)Nc1cc(C(=O)NCCC2=CC[C@H]3C[C@@H]2C3(C)C)cc2nc(-c3cccnc3)n(C)c12	16.8	0.3
N#Cc1cccc(CN2CCC(NS(=O)(=O)c3ccccc3)CC2)c1	0.2	-2.8
O=S(=O)(c1cc(Cl)ccc1Cl)N1CCNCC1	-7.7	-12.3
COc1cccc(-c2cc(C(=O)N3CCN(C(=O)Nc4ccc(Cl)cc4Cl)CC3)c(C)n2-c2ccccc2F)c1	-4.1	8.3
O=C(NC1CCCN(Cc2ccccc2)C1)C1=Cc2ccccc2OC1 (stereo not drawn)	0.2	-3.4
CN(c1ccc2ccccc2c1)S(=O)(=O)c1cc(C(=O)O)cs1	7.9	5.0
COc1ccc(-n2ncc(C3CC(=O)Nc4snc(C)c43)c2C)cc1 (stereo not drawn)	-1.5	-2.5
CC(C)c1noc(CN2CCC(C3CCCCCN3C(=O)C3CC3)CC2)n1 (stereo not drawn)	-4.4	-4.7
Cc1ccc(OCCN(C)C(=O)C2CC23CCN(Cc2nc4ccccc4s2)CC3)cc1 (stereo not drawn)	22.7	4.7
CCCn1cc(NC(=O)c2cc(-c3ccccc3)on2)cn1	-2.1	-3.8

Brought forward from above: six compounds, followed by the next part.
SMILES	NPYLR7 agonist	NPYLR7 agonist max-min
O=C(NC1CCCN(Cc2ccccc2)C1)C1=Cc2ccccc2OC1 (stereo not drawn)	0.2	-3.4
CN(c1ccc2ccccc2c1)S(=O)(=O)c1cc(C(=O)O)cs1	7.9	5.0
COc1ccc(-n2ncc(C3CC(=O)Nc4snc(C)c43)c2C)cc1 (stereo not drawn)	-1.5	-2.5
CC(C)c1noc(CN2CCC(C3CCCCCN3C(=O)C3CC3)CC2)n1 (stereo not drawn)	-4.4	-4.7
Cc1ccc(OCCN(C)C(=O)C2CC23CCN(Cc2nc4ccccc4s2)CC3)cc1 (stereo not drawn)	22.7	4.7
CCCn1cc(NC(=O)c2cc(-c3ccccc3)on2)cn1	-2.1	-3.8
CCC1CCCCN1C(=O)CSc1nnc(-c2c[nH]c3ccccc23)o1 (stereo not drawn)	-1.5	-6.2
C/C(=N/Nc1nc(N2CCOCC2)nc(N2CCOCC2)n1)c1cccs1	-5.7	-11.8
O=C(C1CCC1)N(Cc1ccc(C(F)(F)F)cc1)CC1CC(c2ccc(Cl)cc2)=NO1 (stereo not drawn)	17.0	13.9
O=C(Cn1cc(-c2nnc(-c3ccco3)o2)c2ccccc21)N1CCCC1	1.8	4.9
c1ccc2c(c1)C(=Nc1ccc3c(c1)OCCO3)c1ccccc1-2	7.2	7.9
C/C=C/CC(=O)N(CCOC)Cc1cnn(C)c1	6.7	1.4
C=CCn1cc(CN2CCC(c3cccc(OC)c3OC)C2)c(C)n1 (stereo not drawn)	-5.3	-5.9
Cc1ccc(NC(=O)N(Cc2cccc(OS(=O)(=O)c3cccc(C(F)(F)F)c3)c2)C(C)C)c(C)c1	5.4	16.1
COc1ccc(S(=O)(=O)N2CCCN(c3nc(Cc4ccc(C)cc4)nc4onc(-c5cccnc5)c34)CC2)cc1	18.9	6.0
CN(CC(=O)Nc1cccc(F)c1)C(=O)COc1ccc2ccccc2c1	-1.4	-3.8
Cc1nn(C)c(C)c1CN(C(=O)CC1C(=O)NCCN1Cc1cccs1)C1CC1 (stereo not drawn)	13.6&18.7	10.4&13.7
Cc1cc(C)n(-c2ccc(Nc3ccc(NC(=O)Nc4ccccc4)cc3)nn2)n1	-3.1	-9.4
N#Cc1ccc(Cl)cc1NCCc1nccn1C(F)F	5.4	0.7
CCOCCN1CCN(Cc2cccc(C(N)=O)c2)CC1	7.5	4.3
O=C(NC1CCN(c2ccc(F)cc2)CC1)N(CC1CCOC1)C1CC1 (stereo not drawn)	4.9	4.0
Cc1ccc(C(C)C)c(OCC(=O)N=Nc2c(O)[nH]c3ccc(Br)cc23)c1	-8.8	-12.2
Cc1ccc(Cl)c2sc(N(CCCn3ccnc3)C(=O)/C=C/c3cccs3)nc12	-10.7	-21.5
COc1ccc(N(C(=O)C(C)C)S(=O)(=O)c2ccc(C(C)C)cc2)cc1	4.4	6.1
Cc1c(N2C(=O)C3C4C=CC(O4)C3C2=O)c(=O)n(-c2ccccc2)n1C (stereo not drawn)	4.6	0.4
COc1cccc(CNC(=O)CCC2CCCN(c3nc4ccccc4o3)C2)c1 (stereo not drawn)	4.9	-9.5
COc1ccc(Br)cc1S(=O)(=O)N1CCN(c2cccc(C)c2C)CC1	-0.3	14.5
CCN(CC)c1cc(C(C)(C)C)nc(SCc2cccc(C(=O)NCC3CC3)c2)n1	9.4	8.8
CC(=O)Nc1c(O)nc(SCC(=O)C2CC2)[nH]c1=O	3.8	1.1
CC(C)OC(=O)c1cc(-n2cnnc2)ccc1Cl	19.9	11.5
CN1CCCN(C(=O)C2CCN(C(=O)C(C)(C)C)CC2)CC1	2.8	1.0
CCc1cc2c(n1Cc1ccccc1)CCCC2=O	10.8	9.4
C=C1c2ccccc2NC(=O)N1Cc1ccc(N2CCOCC2)nc1	2.6	2.4
CC(Cc1ccccc1Br)NC(=O)C1CC(=O)N(C)C1 (stereo not drawn)	0.0&1.3	0.7&-0.4
c1ccc(Cc2cn[nH]c2C2CCCNC2)cc1 (stereo not drawn)	2.8	3.4
CC(=O)NC(Cc1ccccc1F)C(=O)N1CCN(Cc2cccc(-c3noc(-c4cccnc4)n3)c2)CC1 (stereo not drawn)	22.2	12.6
CC1CN(S(=O)(=O)NCCc2ccc(F)cc2F)C(C)CO1 (stereo not drawn)	2.2	6.3
CC(C)c1ccc(N2C(=O)N[C@@H]3CCN(S(=O)(=O)c4cccs4)[C@@H]3C2=O)cc1	-8.6	-12.3
CN(C)C(CNC(=O)c1ccoc1)c1cccc(F)c1 (stereo not drawn)	-2.6	-2.5
COC(=O)c1cc(S(=O)(=O)NC(C)C(C)C)ccc1Br (stereo not drawn)	2.2	2.5
CC(C)C(NC(=O)c1c(F)cccc1F)C(=O)NCc1ccnc(N2CCOCC2)c1 (stereo not drawn)	8.0	3.1
CC1CN(CC(=O)NCc2cccnc2)c2ccccc2NC1=O (stereo not drawn)	9.6	4.9
COc1ccc(CCC2CCN(CN3C(=O)NC4(CCCC4)C3=O)CC2)cc1	18.5	8.1
O=C(NC(Cc1ccccc1)c1ccccc1)c1ccc(CSc2nc(Cl)cc(N3CCN(c4ccccc4F)CC3)n2)cc1 (stereo not drawn)	14.8	22.5
COCC(=O)Nc1ccc(-n2nc(OCc3ccc(F)cc3)nc2-c2ccco2)cc1	17.6	21.2
COc1ccc(CN2CCNC(=O)C2CC(=O)NCCc2ccccc2)c(OC)c1 (stereo not drawn)	5.3	6.3
COC(=O)CN1N=C(C)Cn2c1nc1c2c(=O)n(CCC(C)C)c(=O)n1C	-2.5	-7.7
C=c1occc1=C1NN=C(SCC(=O)NC2CC2)O1	2.3	4.2
CCCCCCCCn1c(O)c(C(C)=NCCCOCC2CC2)c(=O)[nH]c1=S	1.9	-0.2
CCOc1ccccc1N1C(=O)CSC1c1cccc(NC(=O)COc2ccccc2)c1 (stereo not drawn)	-5.0	-1.1

Compound activity: PubChem, Fisher Drug Discovery Resource Center
